Source: PubChem
Marburg entry inh = blocks Marburg virus binding to or entry into cells; Marburg virus pseudotyped entry inhibition, cell reporter; control for the full effect not named in the record; about a third of the inactives were read at about 46 µM; 300,000 tested, 1.8% active; Potency, µM (highest dose often 37.8 µM), inactives show at the highest dose activity change, negative = inhibition, usual class: inhibitors; active = well fitted inhibition curve with a large enough effect; inconclusive = small, poorly fitted or top-dose-only effect, or effect the other way; inactive = flat fitted curve, though single readings scatter; tested in HEK293 cells; about a fifth of its hits are not listed in these tables; further: on the % scale 0 is the no-effect control and ±100 the full control effect; luciferase read-out
LASV entry inh = Lassa virus entry inhibition | Lassa virus pseudotype entry inhibition, cell reporter; control for the full effect not named in the record | AID 540256 | 300,000 tested, 1.2% active | Potency, µM (top dose mostly 37.9 µM), inactives show at the top dose activity change, negative = inhibition, hits mostly inhibitors; active means well fitted inhibition curve with a large enough effect; inconclusive means small, poorly fitted or top-dose-only effect, or effect the other way; inactive means flat fitted curve, though single readings scatter; tested in HEK293 cells; further: on the % scale 0 is the no-effect control and ±100 the full control effect; nearly all actives have a fitted effect of over 50% in size; luciferase read-out
SARS PLP yeast = blocks SARS-CoV papain-like protease in a yeast assay. S. cerevisiae expressing SARS-CoV PLpro, growth rescue; control for the full effect not named in the record. Potency, µM (highest dose often 32.9 µM), without a hit: at the highest dose activity, positive = growth rescue. 330,000 tested, 0.19% active; active means well fitted rising curve with a large enough effect; inconclusive means small, poorly fitted or top-dose-only effect; inactive means no such curve, though single readings can be large or run the other way; further: 0% is about no effect; nearly all actives have a fitted effect of over 55% in size; growth read by luminescence after 48 h
Cruzain Triton = blocks cruzain activity in presence of Triton detergent | P25779 | purified cruzain, Z-FR-AMC fluorescence, 0.01% Triton | Potency, µM, without a hit: max response, negative = inhibition, usual class: inhibitors | 200,000 tested, 0.43% active;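 further: plate controls were neutral wells for no effect and buffer without enzyme for full effect; nearly all actives have a fitted effect of over 40% in size; top concentration of the series not given in the record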
Target sequence (P25779 123-467 limits assumed): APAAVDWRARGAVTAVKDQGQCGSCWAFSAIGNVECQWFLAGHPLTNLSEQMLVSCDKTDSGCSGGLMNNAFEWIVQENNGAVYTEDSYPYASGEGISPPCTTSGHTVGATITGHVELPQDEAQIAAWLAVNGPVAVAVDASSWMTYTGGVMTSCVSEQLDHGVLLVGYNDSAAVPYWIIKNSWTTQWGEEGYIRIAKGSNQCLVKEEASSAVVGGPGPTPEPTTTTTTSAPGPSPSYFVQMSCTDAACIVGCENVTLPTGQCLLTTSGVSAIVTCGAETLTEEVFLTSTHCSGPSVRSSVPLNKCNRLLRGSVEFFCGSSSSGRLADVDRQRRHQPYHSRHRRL
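Cysteine protease activity tested under reducing, mildly acidic conditions (100 mM sodium acetate pH 5.5, 5 mM DTT) plus 0.01% Triton X-100. Cruzain 1.5 nM; substrate Z-FR-AMC 2 uM; 15 min compound preincubation at room temperature.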
Cruzain inh noDet = blocks cruzain activity in detergent-free assay. P25779. purified cruzain, Z-FR-AMC fluorescence, no detergent. Potency, µM, without a hit: max response, negative = inhibition, actives largely listed as inhibitors. 200,000 tested, 2.3% active. AID 1476;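 further: plate controls were enzyme without inhibitor for no effect and buffer without enzyme for full effect; nearly all actives have a fitted effect of over 40% in size; top concentration of the series not given in the record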
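Detergent-free condition (0.00005% Triton X-100) in acetate buffer pH 5.5 with DTT. 1.5 nM enzyme and compound were pre-mixed 15 min, then 2 uM Z-FR-AMC substrate added; reaction progress from fluorescence change between first and third reads (60 s).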
RE007 growth inh = less growth of the S. pombe RE007 Vpr strain. S. pombe RE007 Vpr strain, BacTiter-Glo ATP luminescence, 24 h; control for the full effect not named in the record. 360,000 tested, 0.21% active. Potency, µM (series often up to 92.2 µM), for inactives: at the top dose activity change, negative = less growth. AID 651644; active = well fitted falling curve with a large enough effect; inconclusive = small, poorly fitted or top-dose-only effect; inactive = no such curve, though single readings can be large or run the other way;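 further: on the % scale 0 is the no-effect control and ±100 the full control effect; nearly all actives have a fitted effect of over 50% in size; the assay follows cell death caused by Vpr and the record does not say whether a fall means rescue or toxicity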
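Fission yeast strain RE007, carrying one chromosomally integrated HIV-1 vpr copy, was seeded at OD 0.01 in PMG+AL medium with 23 nL pinned compound. After 24 h at 30 °C and 99% humidity, viability was read by BacTiter-Glo luminescence.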
StopGo reporter = FMDV 2A StopGo reporter, luciferase signal | 410,000 tested, 1.2% active | Potency, µM (highest dose often 57.9 µM), without a hit: at the top dose signal change, negative = less light | human cells with a luciferase reporter of 2A StopGo recoding; control for the full effect not named in the record; active = well fitted falling curve with a large enough effect; inconclusive = small, poorly fitted or top-dose-only effect; inactive = no such curve, though single readings can be large or run the other way; tested in HEK293T cells; further: on the % scale 0 is the no-effect control and ±100 the full control effect; nearly all actives have a fitted effect of over 45% in size; luciferase light after 4 h
NS1 function inh = inhibitors of influenza NS1 protein function | S. cerevisiae slowed by influenza A NS1, growth recovery by OD600 | Potency, µM (top dose mostly 46.1 µM), for inactives: top-dose activity, positive = more growth | AID 2326 | 270,000 tested, 0.4% active; active means well fitted rising curve with a large enough effect; inconclusive means small, poorly fitted or top-dose-only effect; inactive means no such curve, though single readings can be large or run the other way; further: nearly all actives have a fitted effect of over 50% in size
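Compounds were scored for reversing the slow growth caused by influenza A NS1 in S. cerevisiae, measured by optical density at 600 nm. Assay medium contained 2% galactose at pH 6.0; NS1-free yeast of the same strain were the positive control.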
* hit, by the source's call; ? = inconclusive; / = no result given; & = joins results of further samples; [ ] = another dose, or the depositor's remark. Unless noted, the call rests on the fitted dose curve; in most records, active means well fitted curve in the direction sought with a large enough effect; inconclusive means small, poorly fitted or top-dose-only effect, or another doubt; inactive means no such curve, though single readings can be large; an effect the other way counts as inactive or inconclusive. Potency means the concentration at half of the fitted maximal effect.

Sequence of screens – RE007 growth inh, StopGo reporter, NS1 function inh, SARS PLP yeast, Cruzain inh noDet, LASV entry inh, Cruzain Triton, Marburg entry inh
Cc1ccc(C(=O)NCCc2csc(C)n2)cc1
    -3%, 20%, 6%, 1%, -2%, /, 1.8%, -1%
CC(c1ccccc1)C1CC(=O)N(CC(=O)O)C1=O (stereo not given)
    8%, /, 3%, 3%, -5%, 3%, 4.3%, -6%
COc1cccc(NC(=O)CN(C)C(=O)CNC(=O)c2ccc(Oc3ccccc3)cc2)c1
    -4%, 37%[activator], /, 3%, /, 4%[46.1 µM], /, -8%
Nc1nc2n[nH]nc2c(=O)[nH]1
    -4%, -6%, /, /, 16%, /, 1.0%, /
COc1ccc(-c2csc(N(CCCN(C)C)C(=O)c3ccc(Br)cc3)n2)cc1
    9%, -14%, -11%, -6%, /, ?, /, ?
Cn1c(N)c(C(=O)COC(=O)CC(NC(N)=O)c2ccc(Cl)cc2)c(=O)n(C)c1=O (stereo not given)
    -17%, 5%, /, 4%, /, -4%, /, -2%
O=C(CN1CCN(S(=O)(=O)c2cc(Cl)ccc2Cl)CC1)Nc1cccc(F)c1
    /, -21%, /, /, -6%, -8%[46.1 µM], -8.5%, /
O=C(COC(=O)CSCC(=O)N1CCCCC1)Nc1ccc(Cl)cc1
    4%, 5%, -39%, -9%, 3%, 10%, 2.3%, 13%
COCCNc1oc(-c2cccs2)nc1S(=O)(=O)c1ccc(C)cc1
    8%, 40%[activator], -1%, 0%, /, ?, /, ?
CCCCC(=O)Nc1ccc(C(=O)NNC(=S)NC(=O)c2ccccc2[N+](=O)[O-])cc1
    -11%, -8%, /, 1%, /, 10%, /, 2%[46.1 µM]
CC(=O)Nc1cccc(C(=O)OCC(=O)NC(=O)c2ccccc2)c1
    6%, 18%, /, -2%, /, ?, /, 1%[46.1 µM]
Cc1ccc(C(=O)NCC(=O)Nc2ccc3c(c2)CCC3)cc1C
    1%, 1%, /, 0%, /, -7%, /, -5%[46.1 µM]
NC(=Nc1nc(-c2ccccn2)cc2ccccc12)c1ccccn1
    -15%, 0%, /, /, /, 0.56µM*, /, ?
CC(C)COn1c(=S)[nH]c2ccccc2c1=O
    -23%, 13%, -51%, 22%, -3%, -11%, 0.0%, -24%
Cc1ccc(N2CC(C(=O)NCc3nnnn3-c3ccc(C)c(C)c3)CC2=O)cc1 (stereo not given)
    4%, -13%&-2%, -8%, /, ?, -12%[46.1 µM], 3.5%, /
CC(=O)Nc1cccc(Oc2nc(C(F)(F)F)nc3ccccc23)c1
    -1%, -19%, -21%, -3%, /, 24%[46.1 µM], /, 0%[46.1 µM]
COC(=O)C(NS(=O)(=O)c1ccc(N2CCCC2=O)cc1)c1ccccc1 (stereo not given)
    2%, -7%, -2%, -8%, /, 7%, /, -6%
COc1ccc(CCN(C)CCN2C(=O)c3ccccc3C2=O)cc1OC
    2%, -4%, -5%, 4%, -11%, 11%, 5.6%, 12%
COc1ccc(-n2c(C)nn(CCOc3ccccc3)c2=O)cc1
    -6%, 60%[activator], 0%, 0%, /, -19%, /, -9%[46.1 µM]
Cc1cc(NC(=O)CSCC(=O)NCc2cccc(C(F)(F)F)c2)no1
    8%, -15%, /, -3%, /, -5%, /, -10%
COc1ccc(NC(=O)C(c2ccc(C)cc2)N(C)C(=O)CNC(C)=O)cc1 (stereo not given)
    0%, 20%, -4%, 6%, 0%, 2%, 2.8%, ?
CCCn1cnc2c(N)c(C)c(C)cc21
    7%, 2%, 1%, -4%, 2%, 11%, -1.8%, ?
Cc1nc(C(=O)NC(C)C)nn1-c1cc(Cl)cc(Cl)c1
    0%, -3%, /, 2%, /, 7%, /, 2%[46.1 µM]
Cc1ccc(C(=O)NCCNC(=O)c2ccc(C)o2)o1
    5%, -2%, 6%, 0%, /, /, /, /
Cc1c(Cl)cccc1N1C(N)=C(C#N)C(c2cc(CN3CCOCC3)cs2)C2=C1CCCC2=O (stereo not given)
    /, 3%, /, /, -11%, -1%[46.1 µM], -7.4%, -2%[46.1 µM]
O=C1CC(c2ccc(S(=O)(=O)N3CCN(c4ccccc4)CC3)cc2)CN1 (stereo not given)
    1%, /, 1%, 3%, 14%, -11%, 5.4%, 4%
Cc1ccc(NC(=O)Cn2nc(-c3ccco3)ccc2=O)cc1Cl
    5%, 16%, 11%, -1%, /, /, /, /
COc1ccc(C(=O)c2oc3ccccc3c2NC(=O)COc2c(C)cc(C)cc2C)cc1
    /, -1%, /, /, 12%, 25%[46.1 µM], 0.0%, 6%[46.1 µM]
COc1ccc(CNC(=O)C(=O)NCc2ccncc2)cc1
    17%, 4%, -2%, -1%, /, 6%, /, 11%
O=C(NC(=S)Nc1ccc2oc(=O)ccc2c1)c1ccccc1F
    -10%, -27%, -3%, 0%, /, -4%, /, ?
O=C(N/N=C/c1c(O)n(C2CCCCC2)c(=S)[nH]c1=O)c1ccccc1O
    1%, 35%[activator], 5%, 25%, /, /, /, /
O=C(c1ccc(Cl)cc1)N(Cc1ccco1)C1CCS(=O)(=O)C1 (stereo not given)
    -3%, -20%, -9%, 4%, /, /, /, /
O=C1CC(c2ccccc2)CN1S(=O)(=O)c1ccccc1 (stereo not given)
    14%, -22%, -71%, 0%, -2%, /, 0.2%, /
COCCNC(=O)c1c(N)n(CCCn2ccnc2)c2nc3ccccc3nc12
    32%, -6%, 5%, -1%, ?, 22%, -9.4%, 27%[46.1 µM]
CCn1c2ccccc2c2cc(CN3CCN(S(=O)(=O)CC)CC3)ccc21
    /, /, -5%, 1%, 7%, /, -2.4%, 0%
COc1ccc(-c2nc(CS(=O)CC(=O)NCCc3ccc(OC)c(OC)c3)c(C)o2)cc1 (stereo not given)
    -3%, -10%, 0%, 0%, /, 3%[46.1 µM], /, 0%[46.1 µM]
O=C(Cn1ncc2c(=O)oc3ccccc3c21)NCCC1=CCCCC1
    22%, -23%, -8%, -1%, 10%, ?, 1.5%, 7%
Cc1ccc(Cl)cc1NC(=S)N(Cc1cccnc1)Cc1ccccc1Cl
    7%, -17%, /, -14%, /, ?, /, -35%
O=C(O)C1C2C=CC3(CN(Cc4ccccn4)C(=O)C13)O2 (stereo not given)
    -12%, 6%, -4%, 4%, 10%, -2%, 7.1%, 4%
COc1cc(C2(c3ccc(O)c(OC)c3)C(=O)N(C)c3ccc(Br)cc32)ccc1O
    -9%, -21%, /, /, /, 10%[46.1 µM], /, ?
CCN(CC)S(=O)(=O)c1ccc(Cl)c(C(=O)Nc2ccc(Cl)cc2[N+](=O)[O-])c1
    -12%, ?, -8%, -5%, -4%, ?, -2.1%, ?
CSCCC(NC(N)=O)C(=O)NCc1cccc(Cl)c1 (stereo not given)
    0%, -3%, 10%, -1%, -6%, -14%, 3.1%, -13%[46.1 µM]
COCCCNC(=S)NNC(=O)c1ccc(C(C)(C)C)cc1
    -3%, -16%, -1%, 0%, /, /, /, /
C=Cc1ccc(Cn2c(C(=O)O)c(CNCc3cccs3)c3ccc(C)cc32)cc1
    /, -17%, /, /, -7%, ?, -11%, /
COc1ccc(OCCC(=O)NCc2ccccc2)cc1
    0%, 11%, 9%, -5%, 4%, -9%, 2.4%, -1%
CCOc1cc(-c2noc(CCCC(N)=O)n2)cc(Br)c1OC
    -10%, -16%, -10%, 3%, 19%, -2%, -3.7%, 13%
N#Cc1cccc(Nc2c3c(nc4ccccc24)CCC3)c1
    3%, -14%, -2%, -2%, /, ?, /, ?
CC1CCCC(NC(=O)c2cc(-c3ccncc3)nc3ccccc23)C1C (stereo not given)
    10%, -19%, /, 1%, /, ?, /, -4%[46.1 µM]
O=C(NNC(=O)c1cccc2ccccc12)c1ccco1
    9%, 6%, 3%, 1%, 9%, -3%, 0.5%, 0%
O=C(CN1CCCC1)Nc1ccc2c(c1)CCC2
    -28%, 26%, /, 0%, /, -10%, /, -13%[46.1 µM]

Next part.
Sequence of screens – RE007 growth inh, StopGo reporter, NS1 function inh, SARS PLP yeast, Cruzain inh noDet, LASV entry inh, Cruzain Triton, Marburg entry inh
CCS(=O)(=O)N1CCc2cc(C(=O)Nc3cccc(C(C)=O)c3)ccc21
    /, -19%, /, /, -9%, 21%[46.1 µM], -2.4%, -26%[46.1 µM]
Cc1cccc(C)c1NC(=O)CC(NCCc1ccccc1)C(=O)O (stereo not given)
    2%, -12%, 7%, 16%, -6%, 18%, -0.9%, 1%
Cc1ccc(CNC(=O)COc2ccc(C)nc2[N+](=O)[O-])cc1
    3%, -13%, 0%, 3%, -8%, ?, -3.7%, 3%
CCOC(=O)CC1C(=O)NCCN1C(=O)Nc1ccc(Cl)cc1 (stereo not given)
    -11%, -19%, -3%, /, -4%, 15%, -7.6%, 18%
O=C(Nc1ccccc1)N1CCc2c([nH]c3ccccc23)C1C(F)(F)F (stereo not given)
    2%, -11%, -4%, -2%, /, ?, /, ?
COc1ccc(-c2nc(SCC(=O)NCc3nc4ccccc4n3C)n3[nH]c(=O)cc3n2)cc1
    /, -20%, /, /, 2%, -15%[46.1 µM], 0.1%, /
Cc1ccccc1C1CC(=O)Nc2ccc3ccccc3c21 (stereo not given)
    /, -20%, /, /, 2%, ?, -7.9%, ?
CCS(=O)(=O)c1nc(S(=O)(=O)c2ccc(Cl)cc2)c(N2CCC(C(N)=O)CC2)s1
    4%, -3%, -1%, -10%, /, /, /, /
CCN(C(=O)Cn1c(C(=O)OC)cc2sc(Cl)cc21)c1cccc(C)c1
    /, -13%, /, /, 5%, /, -0.5%, ?
Cc1ccc(NC2=C(c3ccc(C(F)(F)F)cc3)C(=O)c3ccccc32)cc1C
    /, 16%, /, /, -13%, 22%[46.1 µM], -2.6%, ?
O=C(C1=C(O)C(=O)N(CCCN2CCOCC2)C1c1ccccn1)c1cc2ccccc2o1 (stereo not given)
    -15%, -8%, 8%, -2%, -14%, -2%, 0.5%, 3%
Cc1ccc(Nc2c(-c3ccccc3O)nc3cc(C)ccn23)cc1
    /, 22%, /, /, 2%, 0%[46.1 µM], -11%, ?

No enrichment for hits. Share with any hit: about 4.7%.
